Source: PubChem (National Center for Advancing Translational Sciences (NCATS))
SARS PLpro yeast = SARS-CoV PLP inhibition in yeast. S. cerevisiae expressing SARS-CoV PLpro, growth rescue; control for the full effect not named in the record. Potency, µM (top dose mostly 32.9 µM), without a hit: at the top dose activity, positive = growth rescue. 330,000 tested, 0.19% active. AID 485353; active means well fitted rising curve with a large enough effect; inconclusive means small, poorly fitted or top-dose-only effect; inactive means no such curve, though single readings can be large or run the other way; also: 0% is about no effect; nearly all actives have a fitted effect of over 55% in size; growth read by luminescence after 48 h
Cruzain inh Det = inhibitors of Trypanosoma cruzi cruzain with detergent. P25779. purified cruzain, Z-FR-AMC fluorescence, 0.01% Triton. Potency, µM, without a hit: max response, negative = inhibition, hits mostly inhibitors. 200,000 tested, 0.43% active. AID 1478;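 also: plate controls were neutral wells for no effect and buffer without enzyme for full effect; nearly all actives have a fitted effect of over 40% in size; top concentration of the series not given in the record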
Target sequence (P25779 123-467 limits assumed): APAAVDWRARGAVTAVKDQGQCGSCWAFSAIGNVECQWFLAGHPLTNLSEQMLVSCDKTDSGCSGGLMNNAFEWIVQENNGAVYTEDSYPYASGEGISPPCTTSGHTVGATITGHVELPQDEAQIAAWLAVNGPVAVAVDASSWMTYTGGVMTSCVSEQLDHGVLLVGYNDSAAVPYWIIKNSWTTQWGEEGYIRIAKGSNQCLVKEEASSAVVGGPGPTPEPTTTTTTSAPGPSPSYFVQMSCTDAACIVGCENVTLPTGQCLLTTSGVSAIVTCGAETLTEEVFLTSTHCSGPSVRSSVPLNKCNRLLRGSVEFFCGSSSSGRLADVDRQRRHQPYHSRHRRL
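Sodium acetate buffer (100 mM, pH 5.5) containing 5 mM DTT and 0.01% Triton X-100 hosted 1.5 nM cruzain and test compound for 15 min at room temperature. Cleavage of 2 uM Z-FR-AMC was then tracked by fluorescence.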
Lassa entry inh = inhibitors of Lassa virus binding or cell entry. Lassa virus pseudotype entry inhibition, cell reporter; control for the full effect not named in the record. Potency, µM (doses to about 37.9 µM), for inactives: at the highest dose activity change, negative = inhibition, most hits filed as inhibitors. AID 540256. 300,000 tested, 1.2% active; active means well fitted inhibition curve with a large enough effect; inconclusive means small, poorly fitted or top-dose-only effect, or effect the other way; inactive means flat fitted curve, though single readings scatter; tested in HEK293 cells; also: % is scaled to controls: 0 for no effect and ±100 for the full control effect; nearly all actives have a fitted effect of over 50% in size; luciferase read-out
RE007 growth inh = less growth of the S. pombe RE007 Vpr strain. S. pombe RE007 Vpr strain, BacTiter-Glo ATP luminescence, 24 h; control for the full effect not named in the record. Potency, µM (series often up to 92.2 µM), inactives show at the highest dose activity change, negative = less growth. 360,000 tested, 0.21% active; active = well fitted falling curve with a large enough effect; inconclusive = small, poorly fitted or top-dose-only effect; inactive = no such curve, though single readings can be large or run the other way;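 also: % is scaled to controls: 0 for no effect and ±100 for the full control effect; nearly all actives have a fitted effect of over 50% in size; the assay follows cell death caused by Vpr and the record does not say whether a fall means rescue or toxicity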
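Fission yeast strain RE007, carrying one chromosomally integrated HIV-1 vpr copy, was seeded at OD 0.01 in PMG+AL medium with 23 nL pinned compound. After 24 h at 30 °C and 99% humidity, viability was read by BacTiter-Glo luminescence.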
NS1 function inh = influenza NS1 inhibition; AID 2326; 270,000 tested, 0.4% active; S. cerevisiae slowed by influenza A NS1, growth recovery by OD600; Potency, µM (titrated, usually from 46.1 µM), for inactives: at the top dose activity, positive = more growth; active means well fitted rising curve with a large enough effect; inconclusive means small, poorly fitted or top-dose-only effect; inactive means no such curve, though single readings can be large or run the other way; also: nearly all actives have a fitted effect of over 50% in size
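Read-out: OD600 growth recovery of NS1-expressing budding yeast. Cells grown overnight at 30C in -URA glucose medium, washed, resuspended and diluted 1:100 in 2% galactose assay medium, pH 6.0. Same strain lacking NS1 served as positive control.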
Marburg entry inh = blocks Marburg virus binding to or entry into cells. Potency, µM (titrated, usually from 37.8 µM), inactives show at the highest dose activity change, negative = inhibition, usual class: inhibitors. Marburg virus pseudotyped entry inhibition, cell reporter; control for the full effect not named in the record; about a third of the inactives were read at about 46 µM. 300,000 tested, 1.8% active; active = well fitted inhibition curve with a large enough effect; inconclusive = small, poorly fitted or top-dose-only effect, or effect the other way; inactive = flat fitted curve, though single readings scatter; tested in HEK293 cells; about a fifth of its hits are not listed in these tables; also: % is scaled to controls: 0 for no effect and ±100 for the full control effect; luciferase read-out
2A StopGo = lowers the luciferase signal of an FMDV 2A StopGo reporter; human cells with a luciferase reporter of 2A StopGo recoding; control for the full effect not named in the record; Potency, µM (highest dose often 57.9 µM), without a hit: at the highest dose signal change, negative = less light; 410,000 tested, 1.2% active; active = well fitted falling curve with a large enough effect; inconclusive = small, poorly fitted or top-dose-only effect; inactive = no such curve, though single readings can be large or run the other way; tested in HEK293T cells; also: % is scaled to controls: 0 for no effect and ±100 for the full control effect; nearly all actives have a fitted effect of over 45% in size; luciferase light after 4 h
Cruzain noTriton = cruzain (T. cruzi) inhibition without detergent. purified cruzain, Z-FR-AMC fluorescence, no detergent. Potency, µM, for the others: max response, negative = inhibition, usual class: inhibitors. 200,000 tested, 2.3% active;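 also: plate controls were enzyme without inhibitor for no effect and buffer without enzyme for full effect; nearly all actives have a fitted effect of over 40% in size; top concentration of the series not given in the record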
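Purified cruzain at 1.5 nM, pre-incubated 15 min with compound at room temperature in 100 mM sodium acetate pH 5.5, 5 mM DTT, 0.00005% Triton X-100. Reaction started with 2 uM Z-FR-AMC; AMC fluorescence increase over 60 s gives rate.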
Starred values were filed as active, the others as inactive; ? = inconclusive; nt = not tested or not shown; & = joins results of further samples; [ ] = remark or other dose. Unless noted, calls follow the shape of the dose curve; as a rule, active = well fitted curve in the direction sought with a large enough effect; inconclusive = small, poorly fitted or top-dose-only effect, or another doubt; inactive = no such curve, though single readings can be large; an effect the other way counts as inactive or inconclusive. Potency is read from the fitted curve at half-maximal effect.

item	SMILES	2A StopGo	Cruzain noTriton	RE007 growth inh	Cruzain inh Det	Marburg entry inh	Lassa entry inh	SARS PLpro yeast	NS1 function inh
1	CCn1cc(C(=O)NCc2cccnc2)c(=O)c2cc(F)c(N3CCN(C(=O)c4ccco4)CC3)cc21	?	?	1%	-8.6%	?	?	4%	-9%
2	COc1ccc(S(=O)(=O)N(C(=O)c2ccncc2)c2ccc(OC(=O)c3ccncc3)cc2)cc1	-5%	nt	30%	nt	-1%	6%[46.1 µM]	-9%	nt
3	Cc1cccn2c(=O)c(/C=N/O)c(NCc3ccccc3)nc12	-21%	nt	54%	nt	20%	22%	-1%	3%
4	COC(=O)CC1COc2ccccc2N1S(=O)(=O)c1ccc(OC)cc1 (stereo unspecified)	-2%	nt	46%	nt	?	?	10%	-8%
5	O=C(C=Cc1ccccc1)N1CCCCC1	47%[activator]	nt	2%	nt	?	0%[46.1 µM]	nt	nt
6	COc1ccc(NC(=O)C2CCN(c3nc(C)nc4c3CCC4)CC2)cc1	?	-6%	-16%	2.7%	?	?	-28%	-6%
7	Cc1cccc2nc(CSc3nncn3-c3ccccc3)cn12	8%	-9%	-11%	0.3%	-3%	7%	6%	-1%
8	CN(C)S(=O)(=O)c1ccc(C(=O)Nc2ccc3nc(N4CCOCC4)sc3c2)cc1	4%	nt	-1%	nt	?	17%	0%	nt
9	COc1ccc(Br)cc1C(=O)NC(=S)Nc1ccc2[nH]c(=O)[nH]c2c1	1%	nt	2%	nt	4%[46.1 µM]	5%[46.1 µM]	1%	10%
10	C/C(=N/Nc1ncc(C(F)(F)F)cc1Cl)c1ccncc1	-11%	nt	-10%	nt	7%[46.1 µM]	?	-2%	4%
11	C=CCN(c1ccccc1)S(=O)(=O)c1cccc(C(=O)Nc2cccc(C)n2)c1	?	nt	1%	nt	?	?	-2%	nt
12	O=S(=O)(c1ccc(NC(=S)NN=C(Cc2ccccc2)Cc2ccccc2)cc1)N1CCOCC1	0%	nt	4%	nt	12%[46.1 µM]	?	1%	1%
13	N=C(N)c1ccc(N)cc1	-19%	5%	7%[18.4 µM]	-4.8%	3%&3%&3%&-16%&3%	1%	nt	-8%
14	CCC(=O)NNc1ncnc2c1cnn2C	-7%	nt	20%	nt	15%[46.1 µM]	-9%	0%	nt
15	O=[N+]([O-])c1ccc(N=Nc2ccc(O)cc2O)cc1	10%	-29%	0%	-22%	?	10µM*	-30%	-30%
16	CC(=O)N/N=C/c1ccccc1OCCOc1cccc(C)c1	49%	nt	0%	nt	nt	nt	-2%	-36%
17	O=C(O)COc1ccc(F)cc1Br	8%	nt	2%	nt	nt	nt	0%	3%
18	CCC(C)[C@H](NC(=O)NCc1cccs1)C(=O)OC (stereo partly specified)	92%[activator]	5%	6%	-1.4%	6%	16%	4%	-10%
19	CCOC(=O)C1CCN(C(=O)COc2ccc(Br)cc2C)CC1	3%	nt	8%	nt	?	8%[46.1 µM]	0%	-6%
20	Cc1ccc(N2CC(C(=O)NC(C)CCc3ccccc3)CC2=O)cc1 (stereo unspecified)	0%	nt	-2%	nt	0%[46.1 µM]	-2%[46.1 µM]	-2%	8%
21	COc1cccc(N2CC(C(=O)N3CCC4(CC3)CC(=O)c3ccccc3O4)CC2=O)c1 (stereo unspecified)	?	nt	1%	nt	-30%	?	0%	nt
22	NS(=O)(=O)c1ccc(NC(=O)COC(=O)c2cc([N+](=O)[O-])ccc2Cl)cc1	-8%	nt	1%	nt	-3%[46.1 µM]	3%	0%	1%
23	CCN(c1ccccc1)S(=O)(=O)c1cnc[nH]1	10%	-9%	-19%	0.7%	9%[46.1 µM]	-5%	7%	2%
24	Cn1c(N)c(C(=O)COC(=O)/C=C/c2ccc(Cl)c(Cl)c2)c(=O)n(C)c1=O	-22%	nt	14%	nt	2%[46.1 µM]	-10%[46.1 µM]	-1%	nt
25	Cc1cc(NC(=O)c2cccc(S(=O)(=O)N3CCOCC3)c2)no1	-5%	-6%	0%	3.3%	14%&14%	11%	-6%	4%
26	CCN(CC(=O)Nc1cccc(OC)c1)c1ncnc2sc(C)c(C)c12	20µM*	12%	20%	-6.6%	?	-26%	-10%	1%
27	COc1cc(/C=C2\C(=N)N3N=C(S(C)(=O)=O)SC3=NC2=O)cc(OC)c1OCCOc1ccccc1C	-6%	nt	-2%	nt	9%	16%	0%	8%
28	CNC(=O)CN(c1ccc(F)cc1)S(=O)(=O)c1cc(C)ccc1OC	25%	-9%	19%	0.5%	-10%	6%	3%	3%
29	OCCN1CCN(c2nc(-c3ccccc3)c3cc(Cl)ccc3n2)CC1	0%	2%	4%	-3.5%	?	?	-2%	-39%
30	Cc1ccc(CCNC(=O)CCCn2c(=O)c3cccn3c3ccc(F)cc32)cc1	-9%	11%	nt	0.0%	nt	19%[46.1 µM]	nt	nt
31	CCOc1ncccc1C(=O)N1CCN(S(=O)(=O)c2ccc(Br)cc2Cl)CC1	-11%	nt	18%	nt	?	4%	2%	nt
32	CCSc1oc(-c2ccco2)nc1S(=O)(=O)c1ccc(F)cc1	7%	-16%	1%	-19%	?	-16%	-5%	-27%
33	CCCCc1cc(=O)oc2c(C)c(OCC(=O)N3CCC(C(N)=O)CC3)ccc12	1%	nt	11%	nt	nt	nt	-2%	-3%
34	Cc1cccc(NC(=O)c2onc3c2CCCC3)c1C	-4%	-3%	4µM*	2.1%	?	6%	-4%	-14%
35	Cc1n[nH]c(=S)n1/N=C/c1ccccc1OCc1ccc(Cl)cc1	24%	-2%	-4%	-1.7%	16%	29%	-9%	-11%
36	CCOCCCn1c(SCC(=O)Nc2oc(C)c3c(C)n[nH]c(=O)c23)nc2ccccc2c1=O	-11%	nt	-12%	nt	2%[46.1 µM]	-3%	nt	nt
37	CC(C)N(Cc1nc(-c2ccccc2)no1)C(=O)c1ccc2c(c1)OCO2	-6%	0%	-8%	-6.6%	?	19%	0%	0%
38	O=c1[nH]cnc2c1ncn2-c1ccc(Cl)cc1	-20%	nt	8%	nt	5%	-3%	nt	nt
39	Cc1ccc(S(=O)(=O)NCC2CCC(C(=O)N3CCN(C)CC3)CC2)cc1 (stereo unspecified)	-9%	nt	12%	nt	nt	nt	?	2%
40	O=C1C=C(N2CCCCCC2)C2(CCCCC2)O1	-9%	nt	7%	nt	11%	-3%	0%	1%
41	CS(=O)(=O)N(CC(=O)Nc1ccc(F)cc1F)c1cccc([N+](=O)[O-])c1	-5%	-1%	13%	1.5%	-12%	-4%	6%	-5%
42	Cc1ccc(C)c2c1cc(C)c1nnc(SCC(=O)Nc3nc4c(s3)CCCC4)n12	-4%	?	-2%	-1.5%	?	-35%	-6%	11%
43	Cc1cc(C)n2nc(C(=O)OCC(=O)N(C)C3CCCCC3)nc2n1	-16%	nt	14%	nt	-7%	?	3%	nt
44	Cc1cc(=O)n2nc(N3CCC(C(=O)Nc4ccc(Br)c(C)c4)CC3)sc2n1	-24%	7%	nt	-1.0%	-18%[46.1 µM]	19%[46.1 µM]	nt	nt
45	O=C1Cc2cc(S(=O)(=O)NCc3ccccc3Cl)cc3c2N1CCC3	26%	nt	-2%	nt	nt	nt	-1%	11%
46	Cc1nc(NC(=O)CSc2nnc(N)s2)c(Cl)cc1Cl	-4%	nt	12%	nt	14%[46.1 µM]	4%	2%	nt
47	COC(=O)c1ccc(OCC(=O)N2CCCc3ccccc32)cc1	32%[activator]	nt	14%	nt	15%[46.1 µM]	-10%	-9%	-14%
48	CC1(C(=O)O)CCC(C(=O)N2CCOCC2)C1(C)C (stereo unspecified)	5%	6%	-2%	5.6%	17%	-8%	-6%	-67%
49	O=C(c1coc(=O)c(Br)c1)N1CCCc2ccccc21	1%	-16%	-10%	-10%	14%	-14%	2%	9%
50	O=C(Nc1ccc(OC(F)(F)F)cc1)C1CCCCN1S(=O)(=O)c1ccccc1 (stereo unspecified)	?	nt	7%	nt	?	-20%	-3%	nt
51	CC(C)N1C(=O)N(c2ccccc2)C(C)(O)CC1(C)C (stereo unspecified)	-22%	-3%	24%	0.2%	-7%	15%	20%	-1%
52	Cc1ccc(N2CC(=O)N(NC(=O)c3sc4nc(C)cc(C)c4c3N)CC2=O)cc1	-5%	nt	19%	nt	-28%[46.1 µM]	-16%	1%	3%
53	COC(=O)c1c(NC(=O)COC(=O)CNC(=O)C2CCCCC2)sc(C)c1C	-21%	10µM*	0%	4µM*	?	6%	6%	5%
54	CC(CC(=O)Nc1nccs1)c1ccccc1 (stereo unspecified)	-15%	nt	12%	nt	-8%[46.1 µM]	1%[46.1 µM]	11%	6%
55	CCOc1ccc(CNC(=O)c2cc3c(=O)n(C)c4ccccc4c3s2)cc1	-6%	0%	nt	0.7%	-16%[46.1 µM]	-1%[46.1 µM]	nt	nt
56	Cc1cc(C)cc(NC(=S)NC2CC3CCC(C2)N3Cc2ccco2)c1 (stereo unspecified)	-25%	-2%	0%	4.5%	?	?	0%	-10%
57	Cc1ccc(C2=Nc3ccccc3NC(C)(c3ccc(C)o3)C2)o1 (stereo unspecified)	18%	-6%	-16%	0.8%	-5%	-3%	-3%	-6%
58	Cc1ccc(C(C)C)c(OCC(=O)NCC2(N3CCOCC3)CCCCC2)c1	?	7%	nt	-0.9%	?	-6%[46.1 µM]	nt	nt
59	Cc1ccc2nc(N(CCCN(C)C)C(=O)c3ccc(S(=O)(=O)N4CCCCCC4)cc3)sc2c1	-25%	nt	12%	nt	?	?	-4%	3%
60	O=C(Nc1nnc(CCS(=O)(=O)c2ccc3ccccc3c2)s1)c1cccs1	-19%	?	-16%	-0.9%	-10%	0%	10%	11%
61	O=C(Nc1ccc(C(=O)O)cc1)Nc1ccc([N+](=O)[O-])cc1	-6%	nt	-1%	nt	-2%	3%	3%	1%
